H5N1 CPE: MDCK cell protection from H5N1 avian flu; cytopathic effect, luminescence, 72 h; active compounds read high; no value below 0 was filed and about half of the inactive calls have no number; reference of the scale not given here; inhibition, % at 50 µM; hit rate 0.07% among 96,000; AID 740, 2007; in the data active = inhibition above about 25%
* hit, by the source's call; i = inactive. An excerpt, so the mix of outcomes need not match the whole.

nr	SMILES	H5N1 CPE
1	OC(Cn1cccn1)c1ccccc1 (stereo unspecified)	i
2	Cc1cc2c(c(=O)o1)C(C1C=CCCC1)C(C#N)=C(N)O2 (stereo unspecified)	i
3	O=C(Nc1ccc(Cl)cc1)c1ccncc1	i
4	COC(=O)CNS(=O)(=O)c1ccc(C)cc1	i
5	CCOC(=O)c1c(C)c(C(=O)NCc2ccco2)c(C)n1Cc1ccccc1	i
6	CCOC(=O)COc1ccc(Br)cc1C1NC(=O)NC(C)=C1C(=O)NCc1ccccc1 (stereo unspecified)	i
7	Nc1nc(N)nc(-c2ccccc2O)n1	4.5
8	CC(C)OC(=O)CN1CCN(S(=O)(=O)c2cc(Cl)ccc2Cl)CC1	0.9
9	Cc1cc(NC(=O)COc2nnc(-c3ccccc3)c3ccccc23)no1	0.2
10	CC(C)Oc1ccc(OCCCN2CCCCCC2)cc1	i
11	CCOC(=O)N1CCN(C(=O)CN(c2cccc(C(F)(F)F)c2)S(=O)(=O)c2ccccc2)CC1	i
12	O=C(C1CC1)N1CCN(C(c2ccccc2)c2ccccc2)CC1	i
13	C[C@@]12CC(=O)NC1N(C(=O)c1ccccc1)C(c1ccccc1OC(=O)c1ccccc1)C2 (stereo partly specified)	0.3
14	CC(C)Nc1nc2n(c(=O)n1)CCN2C(C)C	i
15	CC(=O)N1CCCc2cc(S(=O)(=O)N3CCN(C4CCCCC4)CC3)ccc21	0.1
16	Cn1ccnc1Sc1ccc(/C=N/NC(=O)c2ccccc2[N+](=O)[O-])cc1[N+](=O)[O-]	0.5
17	Cc1nn(Cc2ccccc2Cl)c(C)c1C(=O)NC1=NCCS1	i
18	Cc1nc(=O)c(-c2ccccc2)c(C)n1CCCCCC(=O)O	2.2
19	CCOC(=O)C(NC(=O)NC1CCCCC1)(c1ccccc1)C(F)(F)F (stereo unspecified)	1.3
20	CCc1nnc(NC(=O)CSc2nnc3c4ccccc4n(C)c3n2)s1	1.8
21	CCOC(=O)c1sc2ncnc(OC)c2c1C	i
22	COc1ccccc1N1CCN(C(=O)c2cc(-c3cccc(Cl)c3)on2)CC1	i
23	CCOC(=O)C1=C(C)NC(C)=C(C(=O)OCC)C1C(=O)OCC(=O)NC(C)C	i
24	Cc1ccccc1C(C(=O)NCc1ccco1)N(CC1CCCO1)C(=O)Cn1nnc2ccccc21 (stereo unspecified)	i
25	Cc1cccc(Nc2nc(NCc3ccco3)nc(N3CCOCC3)n2)c1	5.2
26	COc1ccc(Oc2coc3c(CN4CCOCC4)c(O)ccc3c2=O)cc1	i
27	Cc1ccc(S(=O)(=O)C(C)C(=O)c2ccc3c(c2)OCCO3)cc1 (stereo unspecified)	1.4
28	COc1ccccc1-c1nnc(SCC(=O)NC2CCCCC2)o1	0.7
29	Cc1ccc(S(=O)(=O)N2CCc3ccccc3C2CN2C(=O)c3ccccc3C2=O)cc1 (stereo unspecified)	i
30	Cc1cccc(NC(=O)N(Cc2cc3cc(C)cc(C)c3[nH]c2=O)CC2COCCO2)c1 (stereo unspecified)	i
31	CCCCCN=Cc1c(C)[nH]n(-c2nc3ccccc3s2)c1=O	i
32	Cc1ccc(C(C(=O)NC2CCCC2)N2CCc3ccccc32)cc1 (stereo unspecified)	i
33	COc1ccc(Cl)cc1N(CC(=O)Nc1cccc(SC)c1)S(C)(=O)=O	i
34	Cn1c(=O)c2c(-c3ccccc3)n(Cc3ccccn3)cc2n(C)c1=O	0.6
35	O=C(CSc1nc(O)cc(=O)[nH]1)N1CCCc2ccccc21	i
36	COc1ccccc1N(CC(=O)Nc1ccccc1C(=O)NCC(C)C)S(C)(=O)=O	0.5
37	CCCn1nnc(NC(=O)c2ccccc2Cl)n1	0.1
38	CCC(=O)Nc1ccc(NC(=O)CSc2nnnn2C(C)C)cc1	i
39	CCOc1ccccc1OCC(=O)NC1CCCCC1	i
40	COc1ccc(-n2cc(-c3ccccc3)c3c(N4CCN(CCO)CC4)ncnc32)cc1	4.6
41	COc1cc(CCC(=O)OCn2nnc3ccccc3c2=O)cc(OC)c1OC	0.4
42	C=CCSc1n[nH]c(-c2ccc(OCCC)cc2)n1	0.1
43	CCOc1nc(-c2ccccc2)ccc1-c1noc(-c2ccco2)n1	i
44	O=C(c1ccccc1)N1CCN(C(=O)N2CCOCC2)CC1	0.8
45	O=C(N/N=C/c1cccc([N+](=O)[O-])c1)c1cc2c(ccc3ccccc32)o1	i
46	CCNC(=O)Cn1c(=O)c2c(ncn2Cc2ccccc2)n(Cc2ccccc2)c1=O	0.2
47	CCOc1ncccc1C(=O)Nc1ccc(-c2cn3ccsc3n2)cc1	0.4
48	O=C(CCCOc1ccccc1)n1nnc2ccccc21	0.6
49	C#CC(CC)(CC)NC(=O)c1c(C)noc1C	0.6
50	CCN1CCN(C(=O)CS(=O)(=O)Cc2nc(-c3ccc(C)cc3)oc2C)CC1	i
51	CCCCn1nnnc1SCC(=O)Nc1ccc(N(C)C)cc1	0.4
52	CCCCOC(=O)Nc1ccc(C(=O)OCCC)cc1	i
53	CCN(CC)S(=O)(=O)c1cc(OC)c(Cl)cc1Cl	i
54	CCOC(=O)CN1C(=O)Nc2ccc(Br)cc2C1c1ccccc1 (stereo unspecified)	0.4
55	COc1ccc(C(=O)N2CC3(C)CC2CC(C)(C)C3)cc1 (stereo unspecified)	2.3
56	Cc1ccc(NC(=O)CSc2nnc(NC(=O)CN3CCOCC3)s2)cc1	i
57	O=C1CC(O)(C(F)(F)F)Oc2c1ccc1ccccc21 (stereo unspecified)	i
58	COc1ccc(N2C(=O)C(CC(=O)Nc3ccccc3)N(Cc3ccc4c(c3)OCO4)C2=O)cc1 (stereo unspecified)	0.3
59	CCOC(=O)/C(C#N)=C\c1ccc(CC)s1	1.1
60	O=S(=O)(c1ccc(Br)cc1)N1CCN(c2ccc3nnc(-c4ccccc4)n3n2)CC1	1.3

Reformatted: entries from further up
47. CCOc1ncccc1C(=O)Nc1ccc(-c2cn3ccsc3n2)cc1
  H5N1 CPE: 0.4

48. O=C(CCCOc1ccccc1)n1nnc2ccccc21
  H5N1 CPE: 0.6

49. C#CC(CC)(CC)NC(=O)c1c(C)noc1C
  H5N1 CPE: 0.6

Sorted by molecular weight (high to low): part of the list above
nr	SMILES	H5N1 CPE
23	CCOC(=O)C1=C(C)NC(C)=C(C(=O)OCC)C1C(=O)OCC(=O)NC(C)C	i
20	CCc1nnc(NC(=O)CSc2nnc3c4ccccc4n(C)c3n2)s1	1.8
25	Cc1cccc(Nc2nc(NCc3ccco3)nc(N3CCOCC3)n2)c1	5.2
9	Cc1cc(NC(=O)COc2nnc(-c3ccccc3)c3ccccc23)no1	0.2
49	C#CC(CC)(CC)NC(=O)c1c(C)noc1C	0.6

(continued)
nr	SMILES	H5N1 CPE
61	CC(/C=N/NC(=O)c1cccnc1)=C\c1ccco1	1.1
62	Cc1ccc(C(=O)OCC(=O)Nc2sccc2C(N)=O)cc1NC(=O)c1ccco1	i
63	C=C(C)c1cccc(C(C)(C)NC(=O)N2CCN(CC)CC2)c1	0.1
64	COc1ccc(NC(=O)CN2CCN(CC(=O)Nc3ccc(OC)c(OC)c3)CC2)cc1	i
65	CCN(CC(=O)Nc1ccc([N+](=O)[O-])cc1OC)c1ccccc1	i
66	COc1cc(OC)cc(C(=O)N2CCN(C(=O)c3ccc(OC)c(OC)c3)CC2)c1	0.3
67	O=C(CN1CCN(CCC(=O)Nc2ccccc2F)CC1)Nc1ccc(F)cc1	i
68	O=C(c1nc2nc(-c3ccc(Cl)cc3)cc(C(F)(F)F)n2n1)N1CCOCC1	0.8
69	CCC12CN3CCN(CC(C3)/C1=N\O)C2	0.8
70	CCCCCCOc1ccc(OC(=O)c2cccnc2)cc1	i
71	O=C(CCc1ccccc1)Nc1ccc(NC(=O)c2ccco2)cc1	0.2
72	N#CC(=C1CCCC1)c1nc(-c2cc3ccccc3oc2=O)cs1	i
73	O=C(O)COc1ccc(NC(=O)c2ccco2)cc1	0.3
74	CCCC(=O)Nc1ccc(C(=O)NNC(=O)c2ccccc2Br)cc1	i
75	Cc1ccccc1N1C(=O)CC(N(O)c2ccccc2)C1=O (stereo unspecified)	i
76	COc1ccc(-c2noc(CSc3ccc(C)cc3)n2)cc1	i
77	CCN1CCCC1CNC(=O)CCc1nc(-c2ccc(C)cc2)no1 (stereo unspecified)	i
78	COC(=O)C(C)Oc1ccc2c(-c3cccc([N+](=O)[O-])c3)cc(=O)oc2c1 (stereo unspecified)	1.1
79	COc1ccc(NC(=O)CSc2nc(O)cc(=O)n2-c2ccccc2OC)cc1	0.6
80	Cc1ccc(N2CSC3=C(C#N)C(c4cccs4)CC(=O)N3C2)cc1 (stereo unspecified)	i
81	COc1ccc(OC)c(S(=O)(=O)N2Cc3ccccc3CC2C(=O)Nc2nccs2)c1 (stereo unspecified)	i
82	Cc1ccc2oc(C(Cl)(Cl)Cl)cc(=O)c2c1	5.1
83	COc1cccc(C(C#N)N2CCOCC2)c1 (stereo unspecified)	i
84	O=C(COC(=O)CCNS(=O)(=O)c1ccc(Cl)cc1)NCc1ccco1	i
85	CSc1n[nH]c(-c2sccc2OCc2ccc(C)cc2)n1	3.2
86	COc1ccc(NC(=O)C2CCC(CNc3c(N4CCCCC4)c(=O)c3=O)CC2)cc1OC (stereo unspecified)	0.5
87	COc1ccc2c(C(=O)CN3CCN(CCO)CC3)c[nH]c2c1	i
88	Cc1cc(=O)oc2cc(OC(C)C)ccc12	i
89	CCCCNC(=O)OC(C)CNC(=O)OC (stereo unspecified)	i
90	Cc1ccc(OCCCn2c(=O)sc3ccccc32)cc1	1.8

The last 3 records of the part above lead into the next:
nr	SMILES	H5N1 CPE
88	Cc1cc(=O)oc2cc(OC(C)C)ccc12	i
89	CCCCNC(=O)OC(C)CNC(=O)OC (stereo unspecified)	i
90	Cc1ccc(OCCCn2c(=O)sc3ccccc32)cc1	1.8
91	COC(=O)[C@@H](NC(=O)NC(C)CCc1ccccc1)C(C)C (stereo partly specified)	i
92	CCN(CC(=O)N1CCN(C)CC1)S(=O)(=O)c1ccc(Cl)cc1	0.6
93	Cc1cc(C)cc(N(C(=O)c2ccccn2)C(C(=O)NC2CCCCC2)c2cccs2)c1 (stereo unspecified)	i
94	CCOc1ccc(N2C(=O)CC(N)C2=O)cc1 (stereo unspecified)	i
95	O=c1c2[nH]c3ccccc3c2ncn1CCN1CCOCC1	0.7
96	CCCN=C(N)/C(C(=O)OCC)=C(\O)c1ccc(OC)cc1	0.2
97	COc1cccc(C(=O)NC2CC3CCCC(C2)N3CC(=O)Nc2ccccc2)c1 (stereo unspecified)	1.4
98	C=CCn1c(SCc2cccc3ccccc23)nnc1-c1cccnc1	0.9
99	COc1ccc(OC)c(C2=NOC(C(=O)NCc3ccccn3)C2)c1 (stereo unspecified)	0.5
100	O=C(CSc1nnc2ccccn12)NCc1cccs1	i
101	CS(=O)(=O)N(CC(O)CON=C1c2ccccc2-c2ccccc21)c1ccc(F)cc1 (stereo unspecified)	i
102	CCOc1ccc(N=C(NC#N)SC)cc1	0.2
103	CC12CN3CC(C)(CN(C1)C3c1ccc(Cl)cc1Cl)C2=O (stereo unspecified)	i
104	COc1ccc(C)cc1NC(=O)c1ccoc1C	4.7
105	O=C(CN1C2=NCCN2c2ccccc21)c1ccc2c(c1)OCO2	0.2
106	O=C(c1cc2nc(-c3ccc(F)cc3)cc(C(F)(F)F)n2n1)N1CCCC1	0.9
107	Cc1nn(-c2ccc(Cl)cc2)c2sc(C(=O)c3c(N)n(C)c(=O)n(C)c3=O)cc12	i
108	Cc1ccc2c(c1)NC(=O)C(N1CCOCC1)(C(F)(F)F)O2 (stereo unspecified)	i
109	COc1ccc(CCNC(=O)CCSc2nc(-c3ccco3)cc(C(F)(F)F)n2)cc1OC	0.3
110	CCc1cccc(NC(=O)CN2C(=O)NC3(CCCCCCC3)C2=O)c1	0.6
111	O=C(O)C1CC(=O)N(c2ccc(OCc3ccccc3Cl)cc2)C1 (stereo unspecified)	i
112	Cc1cccn2c(=O)c3cc(C(=O)NCc4ccco4)c(=N)n(CCOCCO)c3nc12	3.0
113	CCn1c(COc2ccccc2)nnc1SCC(=O)C(C)(C)C	3.1
114	COc1ccccc1OCC(=O)NN1Cc2ccccc2C1=N	i
115	Fc1ccc(-c2nnc(CSc3nnc(-c4ccc5c(c4)OCO5)o3)o2)cc1	0.7
116	CCCc1[nH]nc2c1C(c1ccc(OCCN3CCOCC3)c(OCC)c1)C(C#N)=C(N)O2 (stereo unspecified)	i
117	COc1ccc(CCC(C)Nc2ccc(F)cc2)cc1 (stereo unspecified)	2.6
118	Cc1ccc(S(N)(=O)=O)cc1NC(=O)/C=C/c1cccs1	2.6
119	Cc1n[nH]c(C)c1S(=O)(=O)N1CCCCCC1	i
120	Cc1nn(-c2ccccc2)c2c1C(=O)N(Cc1ccccc1)C(=O)C(C)(C)C2	0.6
121	CCNC(=O)C(C)Sc1ccc(Cl)cc1 (stereo unspecified)	i
122	CCN1CCN(CCCNC(=O)c2csc3c2CCCCC3)CC1	i
123	Cc1cccc(CCNC(=O)C2CCCN(S(=O)(=O)c3cccc4nsnc34)C2)c1 (stereo unspecified)	2.1
124	COC(=O)Cc1[nH]nc2c1C(C1C=CCCC1)C(C#N)=C(N)O2 (stereo unspecified)	i
125	COC(=O)CCN(C(=O)c1cc(OC)c(OC)c(OC)c1)c1ccccn1	0.2
126	CC1=C(C#N)C(NC(=O)C2CCCCC2)(C(F)(F)F)C(=O)N1 (stereo unspecified)	1.2
127	CCc1c(C)c(C#N)c2nc3ccccc3n2c1NCc1ccco1	7.9
128	CCn1c(=O)cc(SCC(=O)Nc2cc(OC)c(OC)c(OC)c2)c2ccccc21	5.4
129	O=C(NCCCn1ccnc1)c1cc(-c2ccc(Cl)cc2)nc2ccccc12	i
130	O=C1C2C3C=CC(C3)C2C(=O)N1c1cccc(-c2nc3ccccc3o2)c1 (stereo unspecified)	0.4
131	COC(=O)CCC(=O)Nc1cccc2c(NC(=O)CCC(=O)OC)cccc12	i

High-throughput results (PubChem)
